Compound activity (PubChem BioAssay)
T cruzi repl – T. cruzi replication inhibition; T. cruzi beta-gal in NIH3T3, luminescence, 90 h; inhibition, % (concentration not given with the values); AID 1885; 1.4% of 300,000 active;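 active means mean inhibition across valid replicates above about 55%, limit read from the data; inconclusive means mean below that limit but half or more replicates reach it; inactive means mean below it, under half of replicates reach it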;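 further: signal also drops with host cell toxicity which is not excluded here; 0% = plate median of DMSO wells and 100% = zero luminescence signal; higher percent means less beta-gal luminescence so fewer parasites; stock transfer was 50 nL into about 50 µL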
Calb FLC – C. albicans growth modulation with fluconazole | C. albicans CaCi-2 (fluconazole-resistant clinical isolate) + fluconazole, Alamar Blue growth, 48 h | growth inhibition, % (no concentration beside the values) | 0.57% of 300,000 active;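 active means most replicates above 75%; inconclusive means exactly half above 75%; inactive means most below 75%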;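 further: all wells also contain fluconazole at 8 µg/ml as a sub-toxic cotreatment; 0% = median of DMSO wells and 100% = median of geldanamycin control wells; wells of about 8 µL received 7.5 nL stock; the first replicate is given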
Beta apoptosis – blocks beta cell apoptosis | INS-1E cytokine-induced death, ATP luminescence, 48 h; percent of positive-control rescue, neutral wells zero | protection from apoptosis, % (concentration not given with the values) | 0.8% of 300,000 active;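 active means all replicates at 75% or more, or half of them and the mean; inconclusive means half reach 75% but not the mean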;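 further: 0% = cytokine-treated negative control wells and 100% = positive control rescue; higher means more ATP so stronger rescue from cytokine killing; wells of about 40 µL received 100 nL stock; the first replicate is given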
RanGTP-Imp inh – inhibitors of RanGTP-importin-beta interaction, primary screen, biochemical, FRET, CFP-Ran, YFP-importin-beta, homogeneous. inhibition, % (no concentration beside the values). 1.1% of 300,000 active. cell-free CFP-Ran/YFP-importin-beta FRET ratio;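 active means most replicates above 15%; inconclusive means exactly half above 15%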;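 further: 0% = DMSO wells and 100% = Ran loaded with GDP instead of GTP; wells of about 40 µL received 100 nL stock; the first replicate is given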
UCH37 DUB inh – human UCH37 deubiquitinating enzyme inhibition; 0.33% of 330,000 active; Q9Y5K5; AID 588478; inhibition, % (concentration not given with the values); purified proteasome/UCH37, Ub-AMC cleavage fluorescence;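 active means mean of two replicates above 20%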;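 further: 0% = compound-free wells with enzyme and 100% = wells lacking proteasome; stock transfer was 100 nL into about 20 µL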
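assay system = human UCH37 enzyme supplied as purified proteasome complex | amount = proteasome at 0.15 nM in the dispensed enzyme solution | schedule = 30 min compound-proteasome preincubation then 25 min substrate reaction, room temperature | measured by = fluorescence, ex 355 nm, em 460 nm | benchmarks = no-proteasome wells (full inhibition) and compound-free wells (no inhibition)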
LANA-H2A inh – blocks KSHV LANA binding to histone H2A/H2B | inhibition, % (test concentration not listed) | AID 2629 | 0.6% of 320,000 active | Q9QR71 | cell-free LANA-H2A/H2B peptide, fluorescence polarization; in the data active means inhibition mostly above about 10%, no sharp cut-off; inactive means mostly below about 6.7%;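 further: stock transfer was 7.5 nL into about 10 µL; 0% = median of vehicle wells and 100% = median of positive control wells; one replicate is shown; the record names a cut of 25% in any replicate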
Target sequence (Q9QR71 whole entry, looked up): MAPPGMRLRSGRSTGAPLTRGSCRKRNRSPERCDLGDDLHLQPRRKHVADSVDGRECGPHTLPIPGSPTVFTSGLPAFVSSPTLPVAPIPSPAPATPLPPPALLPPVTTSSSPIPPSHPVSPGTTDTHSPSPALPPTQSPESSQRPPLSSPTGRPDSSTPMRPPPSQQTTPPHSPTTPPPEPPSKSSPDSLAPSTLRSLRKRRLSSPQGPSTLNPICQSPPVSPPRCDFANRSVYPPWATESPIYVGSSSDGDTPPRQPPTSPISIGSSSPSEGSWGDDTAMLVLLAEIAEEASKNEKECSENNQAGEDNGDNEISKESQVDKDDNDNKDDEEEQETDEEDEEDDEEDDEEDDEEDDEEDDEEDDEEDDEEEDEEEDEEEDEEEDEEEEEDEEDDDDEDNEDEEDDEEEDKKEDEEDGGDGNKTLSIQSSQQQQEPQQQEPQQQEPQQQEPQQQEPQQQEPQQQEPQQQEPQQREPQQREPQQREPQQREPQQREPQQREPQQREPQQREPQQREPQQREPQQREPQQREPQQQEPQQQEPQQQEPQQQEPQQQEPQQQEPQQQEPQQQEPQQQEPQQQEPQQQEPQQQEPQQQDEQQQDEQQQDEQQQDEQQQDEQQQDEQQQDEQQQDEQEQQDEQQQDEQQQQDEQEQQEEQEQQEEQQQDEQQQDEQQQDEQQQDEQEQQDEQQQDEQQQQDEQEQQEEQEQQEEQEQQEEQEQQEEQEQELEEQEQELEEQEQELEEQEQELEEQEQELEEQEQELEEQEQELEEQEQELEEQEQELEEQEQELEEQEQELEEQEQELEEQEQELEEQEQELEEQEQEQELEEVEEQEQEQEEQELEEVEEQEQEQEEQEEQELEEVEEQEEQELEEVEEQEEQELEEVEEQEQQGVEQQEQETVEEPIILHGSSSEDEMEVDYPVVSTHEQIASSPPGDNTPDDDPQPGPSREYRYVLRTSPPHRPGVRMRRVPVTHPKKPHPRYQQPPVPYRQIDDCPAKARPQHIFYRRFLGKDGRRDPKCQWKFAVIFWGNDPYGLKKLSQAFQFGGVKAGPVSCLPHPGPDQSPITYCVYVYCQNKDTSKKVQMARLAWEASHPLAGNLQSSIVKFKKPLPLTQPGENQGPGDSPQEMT
B2AR ag – activates human beta-2 adrenergic receptor causing internalization; P07550; 0.43% of 340,000 active; Am2.2-beta2AR cells, FAP receptor internalization, flow cytometry; reference of the scale not given here; response, % (concentration not given with the values);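 active means response above a set limit, near 3 SD of response in nonfluorescent compounds, cut at about 42% in these data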;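 further: stock transfer was 100 nL into about 11 µL; a reference agonist was the positive control; negative values mostly stem from fluorescent compounds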
A1 inh – inhibitors of the anti-apoptotic protein A1, read as caspase activation; MEF A1-2A-BIM cells, Caspase-Glo 3/7 luminescence, 3 h; percent of clofoctol response, vehicle zero; caspase activation, % (no concentration beside the values); 0.066% of 330,000 active;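 active means over half of replicate activation scores above 10%, or exactly half above 10 with the replicate mean above 10; inconclusive means replicate mean below 10 yet half the replicates above 10; inactive means over half of replicates below 10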;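 further: wells of about 30 µL received 50 nL stock; many hits fall short of the cut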
Active calls of the source: *; ? = inconclusive; / = no result given.

entry	molecule	T cruzi repl	Calb FLC	Beta apoptosis	RanGTP-Imp inh
1	Cc1ccc(C)c(N2CCN(C(=O)Cc3c(C(=O)O)[nH]c4ccc(Cl)cc34)CC2)c1	-6	13	-6	-0.9
2	Cc1ccc(S(=O)(=O)Nc2ccc(OCC(=O)N3CCOCC3)cc2)c(C)c1NS(C)(=O)=O	-4	0	-2	2.5
3	O=C(COc1ccccc1[N+](=O)[O-])N/N=C/c1ccc(OC(=O)c2ccco2)cc1	3	29	1	-3.3
4	COc1cc2c(=O)n(Cc3ccccc3)c(=O)n(CC(=O)NCCc3ccccc3)c2cc1OC	5	7	5	?
5	O=C(Cc1ccc(O)cc1)N/N=C/c1cccnc1	/	102*	6	/
6	O=C(Nc1cccc(Cl)c1)OCc1ccccn1	-4	-18	-4	1.0
7	CCOc1ccc(S(=O)(=O)N2CCN(c3ccccn3)CC2)cc1	-1	7	6	-1.7
8	Cc1ccc(C(=O)OCC(=O)N(Cc2ccccc2)C(C)C)cc1C	/	/	-4	/
9	CCOc1ccc(CN(C)C(C)C(=O)NCCc2ccc(F)cc2)cc1 (stereo not given)	15	22	-4	3.6
10	CC(C)(C)c1ccc(C(=O)CSc2nc3ccccc3c(=O)[nH]2)cc1	-1	2	3	-2.9

entry	UCH37 DUB inh	LANA-H2A inh	B2AR ag	A1 inh
1	4.6	-4.2	1	0.4
2	5.0	-0.4	-4	0.8
3	/	2.9	-9	-0.7
4	-2.1	2.3	5	2.0
5	/	7.9	-9	?
6	1.0	2.8	-11	-2.1
7	0.8	-5.3	-13	0.2
8	0.9	-3.5	1	0.2
9	5.7	-3.6	2	-0.1
10	-1.2	4.7	-2	1.9

New compounds follow
entry	molecule	T cruzi repl	Calb FLC	Beta apoptosis	RanGTP-Imp inh
11	CCc1c(C(=O)NCCc2cccc(C)c2)[nH]c(C)c1C(C)=O	11	5	-2	0.8
12	COC(=O)[C@H](CC(C)C)NC(=O)N1CCCCC1	-28	17	-6	3.4
13	Cc1ccc2c(c1)c1c(n2CC(O)CNC2CCCCC2)CCCC1 (stereo not given)	44	-14	21	-4.3
14	COc1cc(/C=N/NC(=O)C2CCN(CC(O)COCc3ccccc3)CC2)ccc1O (stereo not given)	-7	-17	7	-1.8
15	O=C(C1=C[C@H](C2CCCCC2)C[C@H](OCCCCO)O1)N1CCN(Cc2ccc3c(c2)OCO3)CC1	56*	15	4	4.3
16	CCOC(=O)N1CCN(C(=O)c2ccc3c(c2)ncn3C2CCCC2)CC1	-2	?	-2	-6.1
17	COc1cccc(N(C(=O)CS(=O)CC(=O)Nc2ccc(F)cc2)C(C(=O)NC2CCCCC2)c2cccs2)c1 (stereo not given)	-5	16	-1	1.3
18	COc1cc2c(cc1OC)CN(Cc1ccccc1)CC2	0	3	3	18*
19	CCOC(=O)CSc1nnc([C@@H](NC(=O)OC(C)(C)C)C(C)C)o1	-21	-13	-3	4.2
20	Cc1ccccc1C=O	/	/	1	/

entry	UCH37 DUB inh	LANA-H2A inh	B2AR ag	A1 inh
11	/	5.4	-17	-0.3
12	3.9	1.3	2	0.6
13	1.7	4.4	53*	-0.1
14	/	-3.1	6	0.4
15	-0.4	2.6	0	1.5
16	1.9	4.6	-6	0.6
17	-1.3	0.1	2	0.3
18	-0.7	-0.3	14	-0.5
19	6.0	2.8	5	0.5
20	2.1	0.2	-3	-0.5

Going on with the list:
entry	molecule	T cruzi repl	Calb FLC	Beta apoptosis	RanGTP-Imp inh
21	CC(=O)C[C@H]1c2cc(F)ccc2S(=O)(=O)N1c1ccc(N(C)C)cc1	-11	-9	6	-1.4
22	COc1ccc(CCNC(=O)CN2C(=O)c3cccc4cccc(c34)C2=O)cc1OC	4	6	3	4.0
23	O=C(Nc1ccc(N2CCOCC2)cc1)C1CC(=O)N(c2ccccc2)C1 (stereo not given)	-12	-16	2	0.2
24	CCc1ccc(OCC(=O)NNC(=O)CNC(=O)c2ccc(Br)o2)cc1	/	/	0	/
25	COC(=O)C(CC(=O)c1ccc(C)cc1)n1nc(C)cc1C (stereo not given)	2	-22	-4	2.8
26	Cc1ccc(S(=O)(=O)N2CCCC2CNC(=O)c2ccc(F)c(F)c2)cc1 (stereo not given)	4	6	-2	0.9
27	CCN(c1ccccc1C)S(=O)(=O)c1cc2c3c(c1)CCN3C(=O)CC2	11	1	-5	?
28	Cc1ccc(-c2nc(SCC(=O)Nc3ccccc3OC(F)F)c3c(C)c(C(=O)O)sc3n2)cc1	23	8	-1	6.0
29	COc1ccc2[nH]c3c(=O)n(CCCC(=O)NC4CCC(C)CC4)c(=S)[nH]c3c2c1 (stereo not given)	7	0	1	8.9
30	COc1ccc(C(CNC(=O)Cc2ccccc2Cl)N2CCCCC2)cc1 (stereo not given)	17	-11	5	1.1

entry	UCH37 DUB inh	LANA-H2A inh	B2AR ag	A1 inh
21	-0.9	1.6	4	0.0
22	3.6	8.5	-1	0.0
23	3.3	0.5	0	-0.5
24	5.9	2.2	1	-0.4
25	3.5	1.6	-1	0.3
26	0.3	-3.0	-18	-0.7
27	1.6	4.1	2	1.1
28	/	1.2	/	-0.3
29	-0.2	4.2	8	0.2
30	/	-1.2	8	-0.5

(further entries)
entry	molecule	T cruzi repl	Calb FLC	Beta apoptosis	RanGTP-Imp inh
31	COc1ccc(NC(=O)CSc2nnc(-c3ccccc3F)n2C2CC2)cc1S(N)(=O)=O	-14	-9	3	-0.9
32	O=C(Nc1ccccc1)Nc1nnc(Cc2ccccc2F)s1	3	-2	-3	3.2
33	CN(C)CCCN(Cc1ccccc1)C(=S)Nc1cccc(C(F)(F)F)c1	-4	-1	4	2.9
34	Cn1c(=O)c(-c2ccccc2)nn2c3ccccc3nc12	1	15	-1	-4.7
35	CC(C)c1ccc(NC(=O)C2CCCN(S(=O)(=O)c3cccnc3)C2)cc1 (stereo not given)	8	12	-6	6.3
36	O=C(Nc1nccs1)c1cnccn1	-10	0	-4	1.1
37	O=C(Nc1nnc(-c2ccco2)o1)c1ccc(Cl)s1	-68	-2	/	-1.6
38	CC(=O)c1ccc(NC(=S)NC(=O)/C=C/c2ccccc2)cc1	-2	3	-2	1.8
39	COc1ccccc1OCCSc1nc2ccccc2n1CC(N)=O	-1	2	/	-0.9
40	COc1ccc(-c2csc3ncnc(N4CCN(S(=O)(=O)c5cccc(C(F)(F)F)c5)CC4)c23)cc1	52	-6	/	-0.4

entry	UCH37 DUB inh	LANA-H2A inh	B2AR ag	A1 inh
31	0.5	6.5	-4	-0.5
32	2.8	1.8	0	1.3
33	2.7	-0.8	17	0.3
34	2.2	6.9	1	-0.5
35	5.1	0.3	5	-0.5
36	7.0	-2.6	-6	-0.1
37	7.9	2.0	-11	-0.3
38	11	-0.9	2	0.0
39	0.9	-1.1	-7	0.1
40	-1.3	-1.4	3	-0.1

The list continues.
entry	molecule	T cruzi repl	Calb FLC	Beta apoptosis	RanGTP-Imp inh
41	O=C(CCN1CCN(c2ccccc2F)CC1)Nc1ccccc1Cl	30	1	2	0.5
42	CCOC(=O)N1CCN(C(=O)CN(c2ccc(OC)c(OC)c2)S(C)(=O)=O)CC1	6	7	8	-1.5
43	CCc1sc(C(=O)Nc2cccnc2)cc1Br	14	-9	-13	-3.2
44	CCN(CC)CCSc1nc(O)c(-c2ccccc2)c(=O)n1-c1ccccc1	-2	1	-2	3.8
45	O=C(C1CCN(S(=O)(=O)c2ccccc2)CC1)N1CCOCC1	5	-1	-3	4.7
46	CC(=O)Nc1ccc(S(=O)(=O)N2CCC(C(=O)NCCC(=O)NCc3ccncc3)CC2)cc1	-19	5	/	2.3
47	O=C(Cc1ccccc1)Nc1cc(C(=O)c2ccccc2)ccc1N1CCOCC1	21	9	/	0.2
48	COc1ccc(NC(=O)C2CCCN(c3ncccn3)C2)cc1 (stereo not given)	7	11	0	-1.2
49	O=C(NC(=S)Nc1ccc2oc(-c3cccnc3)nc2c1)c1cccc(Cl)c1	16	?	-6	-0.5
50	Cc1ccc(OCC(=O)N2CCN(c3nnc(-c4ccc(C)cc4)c4ccccc34)CC2)cc1	61*	8	28	-8.2

entry	UCH37 DUB inh	LANA-H2A inh	B2AR ag	A1 inh
41	2.9	2.3	-7	0.3
42	3.1	-1.0	-5	-0.1
43	3.8	-0.4	2	-7.3
44	1.0	4.9	-5	0.7
45	-0.8	-1.7	3	1.1
46	0.0	0.4	0	-0.5
47	3.0	-6.6	-3	0.9
48	2.4	2.2	-5	0.4
49	0.7	7.8	26	0.9
50	3.1	-2.0	-9	/

(cont.)
entry	molecule	T cruzi repl	Calb FLC	Beta apoptosis	RanGTP-Imp inh
51	O=C(CNc1cc(S(=O)(=O)N2CCOCC2)ccc1NCC1CCCO1)Nc1cccc(F)c1 (stereo not given)	13	9	-5	0.3
52	O=C(CC(=O)NN=C1CCCC1)NCCc1ccccc1	-7	-5	-1	-5.2
53	O=C(O)CCN1C(=O)S/C(=C\c2cccnc2)C1=O	-3	8	-4	-3.1
54	Cc1nc(-c2cccs2)sc1C(=O)O	1	11	-1	1.0

entry	UCH37 DUB inh	LANA-H2A inh	B2AR ag	A1 inh
51	6.5	-2.2	7	-0.2
52	-1.9	-1.2	2	-0.2
53	2.5	3.2	8	-0.5
54	-32	1.8	5	-1.5

Entries of single compounds from above.
`O=C(CC(=O)NN=C1CCCC1)NCCc1ccccc1` across the screens: T cruzi repl = -7; Calb FLC = -5; Beta apoptosis = -1; RanGTP-Imp inh = -5.2; UCH37 DUB inh = -1.9; LANA-H2A inh = -1.2; B2AR ag = 2; A1 inh = -0.2
`Cc1nc(-c2cccs2)sc1C(=O)O` across the screens: T cruzi repl = 1; Calb FLC = 11; Beta apoptosis = -1; RanGTP-Imp inh = 1.0; UCH37 DUB inh = -32; LANA-H2A inh = 1.8; B2AR ag = 5; A1 inh = -1.5
